Assay outcomes deposited in PubChem by National Center for Advancing Translational Sciences (NCATS).
HSD17B inhib: blocks hydroxysteroid 17-beta dehydrogenase activity; Q99714; recombinant HSD17B10, NADH fluorescence kinetic; many of its hits are not listed in these tables; Potency, µM (titrated, usually from 57.1 µM), for inactives: at the top dose activity change, negative = inhibition, usual class: inhibitors; actives 7.6% (n = 75,000); AID 893; active means well fitted inhibition curve with a large enough effect; inconclusive means small, poorly fitted or top-dose-only effect; inactive means no such curve, though single readings can be large or run the other way;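 further: the protocol describes HADH2 (HSD17B10) and not the HSD17B4 of the title; nearly all actives have a fitted effect of over 70% in size; most hits overshoot -100% by far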
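His-tagged E. coli-expressed HADH2 at 20 nM in 100 mM Tris-HCl pH 9.0 with 0.01 % Tween-20, preincubated 15 min with compound at room temperature. Reaction with 1 mM NAD+ and 90 uM beta-hydroxybutyryl coenzyme A; NADH fluorescence (360/450 nm) read kinetically over 4 min, last minus first point.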
* marks the source's active call; other numbers are inactive results; i = inactive; ? = inconclusive; & = joins results of further samples; [ ] = another dose, or the depositor's remark. On the % scale 0 is the no-effect control and ±100 the full control effect; potency means the concentration at half of the fitted maximal effect.

#	compound	HSD17B inhib
1	COC(=O)Cc1c[nH]c2ccc(OCC(O)CNC(C)C)cc12 (stereo unspecified)	4%
2	CCOC(=O)c1cnc(SCC(=O)N2CCN(C(=O)c3ccco3)CC2)nc1N	6%
3	Cc1ccccc1-c1nnc(SCc2ccccc2)o1	0%
4	CC(C)c1ccc(OCc2ccc(C(=O)N3CCN(c4ccccn4)CC3)cc2)cc1	-11%
5	O=C(OCn1nnc2ccccc2c1=O)c1ccc2c(=O)n3c(nc2c1)CCC3	-8%
6	Cc1cc(C)n(CC(=O)NC2CCCCC2)n1	2%
7	CCC(C)[C@H](NC(=O)Nc1ccc2c(c1)OCCO2)C(=O)O (stereo partly specified)	2%
8	COc1ccc(CN(C2CCCC2)S(=O)(=O)c2ccc(-n3cnnn3)cc2)cc1OC	?
9	Cc1cc(NS(=O)(=O)c2ccc(Nc3nc(-c4sc(N)nc4C)cs3)cc2)no1	?
10	COC(=O)c1ccccc1S(=O)(=O)Nc1ccc2cn[nH]c2c1	-1%
11	CCCc1cc(OC)c2c(c1)OCO2	4%
12	COC(=O)c1ccc(C(NC(=O)OCc2ccccc2)/C(=C/[C@@H](C)C(=O)NCCF)c2cccnc2)cc1 (stereo partly specified)	-5%
13	C=CCOCC1CN2C(CCC(C)C2c2ccc(Br)cc2)C(=O)O1 (stereo unspecified)	9%[11.4 µM]
14	COc1cccc(CN(Cc2cccnc2)S(=O)(=O)c2ccc(-n3cnnn3)c(C)c2)c1	9%
15	CCCc1cc(Nc2cccc(OCC)c2)n2ncnc2n1	-1%
16	COc1c(C)cc(Br)cc1C(=O)NCc1cccnc1	11%
17	COCCNC(=O)C(c1ccco1)N(C(=O)Cn1nnc2ccccc21)c1ccc(C)cc1C (stereo unspecified)	0%
18	CCCCOC(=O)c1cc2c(cn1)[nH]c1ccccc12	i
19	CC1CCC(NC(=O)C2(C)CCC(=O)N2Cc2cccnc2)CC1 (stereo unspecified)	-4%
20	C=CCn1c(SCC(=O)Nc2cc(C)cc(C)c2)nnc1-c1cnccn1	-2%
21	Nc1nnc(C2CCCC2)s1	6%
22	O=C(CN1CCN(C(=O)c2ccco2)CC1)Nc1ccc2c(c1)OCCO2	5%
23	CCOC(=O)c1cnc(SCC(=O)Nc2ccc(NC(=O)CC)c(OC)c2)nc1N	-2%
24	CCOCCn1c(=O)c2c(nc3n2CCN3c2ccc(CC)cc2)n(C)c1=O	3%

The closing 7 records of the section above are carried over, then new ones follow.
#	compound	HSD17B inhib
18	CCCCOC(=O)c1cc2c(cn1)[nH]c1ccccc12	i
19	CC1CCC(NC(=O)C2(C)CCC(=O)N2Cc2cccnc2)CC1 (stereo unspecified)	-4%
20	C=CCn1c(SCC(=O)Nc2cc(C)cc(C)c2)nnc1-c1cnccn1	-2%
21	Nc1nnc(C2CCCC2)s1	6%
22	O=C(CN1CCN(C(=O)c2ccco2)CC1)Nc1ccc2c(c1)OCCO2	5%
23	CCOC(=O)c1cnc(SCC(=O)Nc2ccc(NC(=O)CC)c(OC)c2)nc1N	-2%
24	CCOCCn1c(=O)c2c(nc3n2CCN3c2ccc(CC)cc2)n(C)c1=O	3%
25	CC1CCCCN1C(=O)N[C@@H](Cc1ccccc1)C(=O)O (stereo partly specified)	-4%
26	Cc1noc(C)c1COC(=O)c1ccccc1Oc1ccccc1	-3%
27	Cc1noc(C)c1C(=O)N1CCC[C@@]2(CCN(C(=O)NC(C)C)C2)C1	1%
28	CCCn1c(CN(Cc2ccccc2)Cc2ccccc2)nc2c1c(=O)n(C)c(=O)n2C	-3%
29	CCCCc1cc(=O)oc2cc(C)c(CN3CCCC3)c(O)c12	16µM*
30	CCOC(=O)c1c(C)oc2c(CN3CCN(C)CC3)c(Br)c(OC)c(O)c12	0%
31	CCc1ccc(C(C)NC(=O)c2cc(C)oc2C)cc1 (stereo unspecified)	-17%
32	CCOC(=O)C(C)n1cnc2c(nnn2-c2ccc(C)cc2)c1=O (stereo unspecified)	-5%
33	CCOC(=O)c1[nH]c(C)c(C(=O)Nc2cc(Cl)ccc2C)c1C	4%
34	O=c1cc(CSc2ccc(Cl)cc2)nc(N2CCOCC2)[nH]1	4%
35	CC(C)n1c(CCCO)nc2ccccc21	-11%
36	CCOC(=O)C1CN(c2cc3c(cc2F)c(=O)c(C(=O)O)cn3CC)OC1C(=O)OCC (stereo unspecified)	13%
37	Cc1cnc(NC(=O)CSc2ncc(-c3ccccc3)n2Cc2ccco2)s1	3%
38	Cc1noc(C)c1-c1cc(N2CCN(C)CC2)ncn1	5%
39	CCCn1nc(NC(=O)c2ccncc2)c2cc3ccccc3nc21	3%
40	Cc1c(NC(=O)c2ccc3c(c2)OCO3)c(=O)n(-c2ccccc2)n1C	-2%
41	CCC1=C2CC[C@H]3C(=O)NC(=O)[C@H]3[C@H]2[C@@]2(C)C(=NCCOC)OC(=O)N2C1=O	15%
42	COc1ccc(OCC2CN3C(CCC(C)C3c3ccc(Br)cc3)C(=O)O2)cc1 (stereo unspecified)	1%&2%[11.4 µM]
43	CCn1nnc(NC(=O)C(C)Oc2ccc(Cl)cc2Cl)n1 (stereo unspecified)	17%
44	COc1ccc(N2CCN(S(=O)(=O)c3ccc(Cl)c(C(F)(F)F)c3)CC2)cc1	?
45	Clc1ccc(C2Nc3ccccc3-n3cccc32)cc1 (stereo unspecified)	-19%
46	CCOc1ccc(OCC)c(NC(=O)C2CCN(S(=O)(=O)c3c(C)noc3C)CC2)c1	-2%
47	CCc1c(C)c2c(C)nn(-c3ccccc3)c2[nH]c1=O	?
48	Cc1cc2cc3c(cc2nc1SCC(=O)O)OCCO3	-16%
49	CCOC(=O)NC1(Nc2ccc(Cl)cn2)Oc2ccccc2O1	?
50	CO[C@]12CC(COC(=O)c3cncc(Br)c3)CN(C)[C@@H]1Cc1cn(C)c3cccc2c13 (stereo partly specified)	-2%
51	O=C(Oc1cccc2c(OC(=O)N3CCOCC3)cccc12)N1CCOCC1	2%
52	COc1cc2c(=O)n(Cc3ccccc3)c(=O)n(CC(=O)C(C)(C)C)c2cc1OC	-1%
53	COc1ccc(CCNC(=O)C2CCN(S(=O)(=O)N3CCCCC3)CC2)cc1OC	1%
54	O=c1c2ccccc2nc(N2CCN(c3ccccc3)CC2)n1Cc1ccccc1	?
55	CC(C)CCn1cnc2c(c1=O)c1nc3ccccc3nc1n2Cc1ccc2c(c1)OCO2	2%
56	CCNC(=O)[C@H](C)/C=C/C(NC(=O)OCc1ccccc1)c1ccc(C(=O)OC)cc1 (stereo partly specified)	-3%
57	Cc1c(S(=O)(=O)N2CCN(C(=O)c3ccco3)CC2)c(=O)n(C)c(=O)n1C	-2%
58	CC(C)[C@@H](C(=O)O)N1C(=O)c2ccccc2C1=O	12%[11.4 µM]
59	O=C(c1coc2ccc(O)c(CN3CCOCC3)c12)C1CC1	-5%
60	O=C(COC(=O)C1CC(=O)N(C2CCCCC2)C1)c1ccc(F)cc1 (stereo unspecified)	9%
61	CNC(=O)c1cc2cc(Cl)cc(OC)c2oc1=O	-24%
62	O=c1c(/C=N/O)c(Nc2ccccc2)nc2ccccn12	-10%
63	C[C@@H](C(=O)NCc1ccc(S(C)(=O)=O)cc1)[C@H]1C[C@]1(C)[C@H](NC(=O)OCc1ccccc1)c1ccccc1	-9%
64	CO[C@H]1COC(=O)[C@H](C)COC(=O)C/C=C\[C@@H](C)[C@H](OC)COC(=O)C/C=C\[C@@H]1C	4%[11.4 µM]
65	COc1cc2[nH]c(=S)n(CCN3CCCCC3C)c(=O)c2cc1OC (stereo unspecified)	0%
66	O=C(CCN(CCO)Cc1ccccc1)Nc1ccc(Br)cc1	5%
67	O=C(NCCCN1CCOCC1)c1cc2cc(Cl)cc(Cl)c2oc1=O	-14%
68	CC(=O)N[C@H](CC(C)C)C(=O)O	6%
69	O=C1C=CC2=C3c4cc(O)c(O)cc4C[C@]3(O)COC2=C1	16µM*
70	NNC(=O)Cc1cccnc1	2%[11.4 µM]
71	Cc1csc(Sc2nc3c(c(=O)[nH]c(=O)n3C)n2CCCc2ccccc2)n1	1%
72	CCOCC(=O)Nc1ccc(S(=O)(=O)NCCc2ccccc2)cc1	8%
73	COc1cc(C)c(Br)cc1S(=O)(=O)N1CCOCC1	4%
74	COCCCNc1ncnc2c1cnn2-c1ccc(C)cc1C	-15%
75	COC1(C)CCC2OC2(C)CCC2C1CC2(C)C (stereo unspecified)	-1%
76	O=C1CCC[C@H]1C(=O)Nc1ccc2ccccc2c1	1%[11.4 µM]
77	COC(=O)c1c(C)n(-c2ccccc2)c2ccc(O)cc12	?
78	C=CCNC(=O)C(C)N1C(=O)c2ccccc2C1=O (stereo unspecified)	6%
79	CNc1ncnc(Sc2nc(N)nc3nc[nH]c23)c1[N+](=O)[O-]	-3%[11.4 µM]
80	Cc1onc(-c2ccccc2)c1C(=O)Nc1sc2c(c1C(N)=O)CCC2	-9%

The results go on.
#	compound	HSD17B inhib
81	O=C(CSc1nc2ccccc2c(=O)n1Cc1ccc(C(=O)NC2CC2)cc1)NCc1ccco1	-21%
82	COc1ccc(CCNC(=O)C2CCCN2C(=O)Nc2cccc(C(C)=O)c2)cc1OC (stereo unspecified)	8%
83	CCc1nnc(NC(=O)C(C)N2C(=O)C3C4C=CC(C4)C3C2=O)s1 (stereo unspecified)	5%
84	CCCCCn1c(CN2CCN(CCO)CC2)nc2c1c(=O)n(C)c(=O)n2C	91%[activator]
85	CCCc1[nH][nH]c(=O)c1C(c1ccccc1)C(C#N)C#N (stereo unspecified)	-19%
86	Cn1c(-c2nc(-c3ccccc3)cs2)nc2ccccc21	32µM*
87	O=C(COc1ccc(Br)cc1CO)Nc1ccc(F)cc1	-6%
88	COc1ccc(CCNC(=O)C2CCN(c3nn4c(=O)cc(C)nc4s3)CC2)cc1OC	9%
89	CSc1nc2ccc(S(=O)(=O)N3CCOCC3)cc2s1	-4%
90	Cc1ccc(-c2noc(-c3ccccc3C(=O)N3CCCC3)n2)cc1	1%
91	Clc1cc(NCc2cccs2)ccc1N1CCOCC1	-4%
92	O=C1CN(C(=O)CCN2CCOCC2)C(c2ccccc2)c2cc(Br)ccc2N1 (stereo unspecified)	7%
93	CCN=C(NCC)SC1CC(=O)N(c2cccc(OC)c2)C1=O (stereo unspecified)	-1%
94	COc1cc2c(cc1OC)C1=C(C#N)CN(CC(=O)O)CN1CC2	-3%
95	CCCCCCN(C(=O)CCCCCN1C(=O)NC(c2ccccc2-c2ccccc2)C(C(=O)OCc2ccccc2)=C1C)C(C(=O)NCCCC)c1ccc(OCC(=O)OC)c(C(=O)OC)c1 (stereo unspecified)	-11%
96	CC(=O)N1CCC2(CCCN(Cc3ccc(C#N)cc3)C2)CC1	0%
97	CCSc1nnc([C@@H]2CCCN2C(=O)OC(C)(C)C)o1	-1%
98	O=C(NCC1CC1)C1CCCN(S(=O)(=O)c2ccc(-n3cnnn3)cc2)C1 (stereo unspecified)	5%
99	Fc1cccc(Cl)c1-c1nnc2ccc(N3CCOCC3)nn12	-1%
100	C=CCSc1nnc(NC(=O)CSc2nnc(C)s2)s1	1%
101	CCOc1ccc(C2CC(c3cccc(Cl)c3)n3nc(N)nc3N2)cc1 (stereo unspecified)	-2%
102	CC(C)Oc1ccc(C2c3c(oc4ccccc4c3=O)C(=O)N2CCCN2CCOCC2)cc1 (stereo unspecified)	9%
103	N#Cc1cccc(NC(=O)N2CCCC3(CCN(S(=O)(=O)c4ccccc4)CC3)C2)c1	1%
104	O=C(NCc1cccnc1)c1ccc(Cl)c(Cl)c1	-4%

Two of the compounds above, field by field:
[102] CC(C)Oc1ccc(C2c3c(oc4ccccc4c3=O)C(=O)N2CCCN2CCOCC2)cc1 (stereo unspecified)
  HSD17B inhib = 9%
[103] N#Cc1cccc(NC(=O)N2CCCC3(CCN(S(=O)(=O)c4ccccc4)CC3)C2)c1
  HSD17B inhib = 1%

Next entries.
#	compound	HSD17B inhib
105	CCOC(=O)Cn1c(=O)oc2cc(S(=O)(=O)Nc3ccc(N(CC)CC)cc3C)ccc21	-15%
106	CC(C)Cn1cnc2c(SCc3ccc(Cl)cc3Cl)nc(N)nc21	-5%[11.4 µM]
107	O=C(Nc1ccc(Br)cc1)C1CCCN1S(=O)(=O)c1cccs1 (stereo unspecified)	1%
108	CCNC(=O)CSc1nc2cc(OC)c(OC)cc2c(=O)n1CCC1=CCCCC1	-5%
109	CCOC(=O)C1CCCN(Cc2nc(N)nc(Nc3ccc(OC)cc3)n2)C1 (stereo unspecified)	8%
110	CCCS(=O)(=O)N1CCCC(C(=O)NCCCOC(C)C)C1 (stereo unspecified)	12%
111	Cc1nnc(NC(=O)c2ccccc2F)s1	8%
112	CC1CCc2nn(CC(=O)NC3CCCC(C)C3C)cc2C1 (stereo unspecified)	7%
113	COc1ccc(OC2C=CC(c3ccccc3)OC2CO)c(C(C)(C)C)c1 (stereo unspecified)	7%[11.4 µM]
114	CC(C)CC(NC(=O)c1ccco1)C(=O)Nc1ccc2c(c1)OCCO2 (stereo unspecified)	-5%
115	CCC(=O)Nc1ccc(NC(=O)CSc2nnc(C(C)C)n2C)cc1	2%
116	O=C(Nc1ccccc1)N1CCC(c2ccccc2)C1 (stereo unspecified)	5%
117	O=C(NCCCN1CCN(c2cccc(Cl)c2)CC1)c1cccc(N2CCCC2=O)c1	-8%

Not all compounds are listed, so the mix of outcomes need not match the whole.
